# From PubChem
# Rce1 inh: yeast Rce1p protease inhibitors, primary screen, biochemical, fluorescence, cell-free homogeneous; CAAX prenyl protease 2 (Saccharomyces cerevisiae (strain ATCC 204508 / S288c)), Q03530; yeast membranes, quenched prenylated peptide cleavage fluorescence; calls only; 0.27% of 290,000 active; AID 2563, 2010;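 active = fall in fluorescence gain of 50% or more versus controls, with final raw signal at or below 3038400; inconclusive = same 50% fall but final raw signal above 3038400; inactive = fall in fluorescence gain under 50%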;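 also: plate controls were neutral control wells for no effect and wells lacking membranes for full effect; tested at 10 µM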
# Env fusion inh: inhibitors of HIV-1 Env-driven cell-cell fusion, primary screen, HeLa-JRFL effector, CEM21 target cells, luciferase | AID 651610, 2012 | 1.1% of 360,000 active | inhibition, % at 12.3 µM;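 active = mean replicate inhibition score of at least 50 and every replicate individually at or above 50; inconclusive = only one of the two criteria met; inactive = mean below 50 and not all replicates reaching 50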;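 also: 0% = plate neutral controls and 100% = maraviroc near 300 nM; one replicate is shown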
# CSC inhib: cancer stem cell viability inhibitors, primary screen, luminescence. cancer stem cell-like cells viability. inhibition, % at 7.5 µM. 1.1% of 300,000 active;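 active = mean at 75% or more and at least half the replicates too; inconclusive = mean and replicates disagree; tested in HMLE shEcad cells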;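 also: 0% = median of negative and 100% = median of positive control wells; the first replicate is given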
# PABP polyA inh: PABP poly(A) RNA binding inhibitors, primary screen, biochemical, fluorescence polarization, uHTS; 1% of 290,000 active; inhibition, % at 35 µM; Polyadenylate-binding protein 1 (Homo sapiens), P11940;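 active = 50% or more with normal probe brightness, or confirmed in later tests; inconclusive = above 50% with abnormal brightness, or retests that disagree; inactive = below 50% or failed in later tests; about a fifth of its hits are not listed in these tables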;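 also: calls also rest on retests at 20 µM and on dose response follow-up; controls were probe without protein and protein plus probe with vehicle; some compounds called inactive have numbers as strong as hits; many hits fall short of the cut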
# Target sequence (P11940 whole entry, looked up): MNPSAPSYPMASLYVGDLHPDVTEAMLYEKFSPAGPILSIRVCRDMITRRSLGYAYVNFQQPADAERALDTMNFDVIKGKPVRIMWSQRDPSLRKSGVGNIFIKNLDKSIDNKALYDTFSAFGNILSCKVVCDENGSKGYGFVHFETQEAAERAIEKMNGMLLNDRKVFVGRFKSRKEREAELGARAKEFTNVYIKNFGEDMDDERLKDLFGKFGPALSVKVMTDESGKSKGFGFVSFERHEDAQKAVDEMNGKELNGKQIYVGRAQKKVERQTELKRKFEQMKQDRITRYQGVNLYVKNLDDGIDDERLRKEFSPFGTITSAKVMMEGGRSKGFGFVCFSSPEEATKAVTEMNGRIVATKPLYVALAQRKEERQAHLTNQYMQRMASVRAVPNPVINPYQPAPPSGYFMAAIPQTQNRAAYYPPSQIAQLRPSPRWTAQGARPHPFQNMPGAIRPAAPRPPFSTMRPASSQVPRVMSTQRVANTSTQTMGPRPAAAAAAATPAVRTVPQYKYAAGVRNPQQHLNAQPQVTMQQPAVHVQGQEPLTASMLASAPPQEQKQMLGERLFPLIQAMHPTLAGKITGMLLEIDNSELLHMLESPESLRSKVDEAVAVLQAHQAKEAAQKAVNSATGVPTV
# MT1-MMP act inh: blockers of MT1-MMP proenzyme processing, primary screen, HT1080 RFP-PRO-GFP cells, GFP/RFP fluorescence | GFP/RFP ratio fluorescence, overnight; percent of plate control window, DMSO zero | GFP/RFP ratio change, % at 20 µM | Matrix metalloproteinase-14 (Homo sapiens), P50281 | 0.061% of 360,000 active;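 active = GFP/RFP ratio change of at least 30% with cell ATP level not reduced by more than half and red fluorescence within 50% of control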; also: strong numbers were not always called active
#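 Assay system: HT1080 RFP-PRO-GFP cells. Benchmarks: DMSO vehicle wells and RFP-L50D-GFP reporter cell wells. Times: overnight cell settling, then overnight compound exposure, 37 °C, 5% CO2. Compound: 20 µM single dose, 1% DMSO. Read-out basis: GFP/RFP fluorescence ratio.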
# UUG fidelity: modulators of yeast start codon fidelity, primary screen, whole organism, S. cerevisiae, single point, plate reader; S. cerevisiae UUG-firefly luciferase reporter, luminescence/redox ratio; activity score, % at 18.7 µM; 0.13% of 350,000 active;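 active = replicate mean at a twofold rise or more, about +100% in these data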;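 also: firefly luciferase made from a UUG start codon reports start codon fidelity; reporter light over untreated wells divided by growth signal over untreated wells; some hits fall short of that in this replicate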
# eIF4H inh: human eIF4H binding inhibitors, primary screen, translation initiation inhibitor project, biochemical, uHTS, fluorescence polarization; Eukaryotic translation initiation factor 4H (Homo sapiens), Q15056; eIF4H fluorescence polarization binding assay; inhibition, % at 35 µM; 0.94% of 290,000 active; AID 2012, 2009;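 active = 50% or more with normal probe brightness, or confirmed in later tests; inconclusive = above 50% with abnormal brightness, or retests that disagree; inactive = below 50% or failed in later tests; about a fifth of its hits are not listed in these tables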;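 also: calls also rest on retests at 20 µM and on dose response follow-up; 0% = protein and probe with vehicle and 100% = probe without protein; strong numbers were not always called active; many hits fall short of the cut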
# MT1-MMP act inh RFP: second read-out of MT1-MMP act inh, no call of its own (marks repeat the call); RFP signal change, %; measured here: RFP expression control read;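 0 = vehicle wells; hits needed this value within 50% of zero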
# An asterisk follows results filed as active; i = inactive; ? = inconclusive; nt = not tested or not shown. This is a subset; count on the stated rates, not on these rows.
molecule	Rce1 inh	Env fusion inh	CSC inhib	PABP polyA inh	MT1-MMP act inh	MT1-MMP act inh RFP	UUG fidelity	eIF4H inh
O=C(Nn1c(C2CCC2)nc2ccccc2c1=O)C1CCC1	i	-2	-9	-1	10	0	-3	-7
O=C(NCCCn1ccnc1)/C(=C\c1ccc(Br)cc1)NC(=O)c1ccccc1F	i	8	-5	4	1	3	-29	-5
CC(=O)Nc1cccc(NC(=O)CSc2nnc(NC(=O)C3CC3)s2)c1	i	-27	-7	-3	1	1	-15	0
Cc1cc(C)c(S(=O)(=O)n2cc(C(C)C(N)C(=O)O)c3ccccc32)c(C)c1 (stereo not given)	i	-36	0	nt	0	-3	-14	nt
Cc1cc(=O)oc2cc(OCC(=O)N3CCN(c4ccc(F)cc4)CC3)ccc12	i	2	-14	nt	0	-1	-11	nt
Cc1cc(NC(=O)CSc2nc3cc(Cl)ccc3s2)no1	i	11	-7	-3	0	3	-11	-8
C[C@H](C[C@H](O)[C@H]1OC1(C)C)C1=C2C[C@H](O)C3[C@@]4(C)CCC(=O)C(C)(C)C4CC[C@]3(C)[C@@]2(C)CC1 (stereo not given in full)	nt	4	26	nt	1	-6	2	nt
C=CCNC(=O)c1ccc(OC)cc1OC	i	-38	-9	11	2	1	-23	-5
Cc1[nH]nc(Sc2ccccn2)c1[N+](=O)[O-]	i	-13	4	-6	1	1	nt	3
COc1ccc(S(=O)(=O)N2CC(=O)Nc3ccccc32)cc1Cl	i	0	-5	-8	-5	1	-14	-12
O=C1CCN(C(=O)c2ccc(Cl)cc2)N1	nt	-2	-3	-7	2	1	-17	-5
Cc1c(N=C(N)/N=C(\N)Nc2ccc(Br)cc2)c(=O)n(-c2ccccc2)n1C	i	5	2	3	-2	-2	nt	-10
Cc1cc(C)nc(NS(=O)(=O)c2ccc(NC(=O)C3(c4ccccc4)CCCC3)cc2)n1	i	nt	1	-8	0	2	9	-12
COc1ccc(C(=O)N2CCCCC2c2cc(C(=O)Nc3ccccc3)no2)cc1 (stereo not given)	nt	3	nt	nt	0	-3	1	nt
CCN1CCN(C(=O)C2CCC(=O)N(CCCN3CCCC3=O)C2)CC1 (stereo not given)	i	4	-7	3	0	4	-4	2
CN(C)S(=O)(=O)c1cccc(NC(=O)c2ccc3c(c2)S(=O)(=O)N=C2CCCCCN23)c1	i	nt	-20	nt	-3	0	3	nt
O=C(O)c1ccc(-c2sc(Nc3ccccc3)n[n+]2-c2ccccc2)cc1	i	8	22	15	-14	1	-15	7
CN(C)C(CNC(=O)c1cc(S(=O)(=O)N(C)c2ccccc2)ccc1Cl)c1ccccc1 (stereo not given)	i	31	-4	3	1	-5	-12	2
C/C(=N\Nc1cc(C)nc(NCc2ccccc2)n1)c1cccc([N+](=O)[O-])c1	i	0	2	-18	2	-10	nt	-9
C/C(=N\OC(=O)c1ccc(C)cc1)c1c(C)nc2cc(C)ccn12	i	-7	1	16	-4	4	nt	1
CC1CCCCN1C(=O)Nc1cccc(Cl)c1 (stereo not given)	i	-15	-12	-16	4	5	-18	-4
NC(=O)C1CCN(C(=O)c2ccc3c(=O)n(Cc4ccco4)c(SCc4ccc([N+](=O)[O-])cc4)nc3c2)CC1	i	-2	-16	-10	-8	-1	-22	1
Cc1ccccc1CS(=O)(=O)c1cn(CC(=O)N2CCC(C)CC2)c2ccccc12	i	-1	-2	17	4	1	1	-2
CC(=O)c1ccc(NC(=O)C2CCN(S(=O)(=O)c3cccnc3)CC2)cc1	i	1	5	0	-4	-2	-4	-6
CN1CCN(C(=O)c2cc3cc(Cl)ccc3[nH]2)CC1	i	-15	-10	-14	-1	-1	-10	-8

# Remaining list, next part.
molecule	Rce1 inh	Env fusion inh	CSC inhib	PABP polyA inh	MT1-MMP act inh	MT1-MMP act inh RFP	UUG fidelity	eIF4H inh
COc1ccc(CC2(CO)CCN(Cc3nc(C(C)C)cs3)CC2)cc1	i	7	-5	-5	0	2	9	-6
CCOc1ccc(C2NC(=O)c3ccccc3O2)cc1 (stereo not given)	i	nt	-10	1	-1	0	-1	-10
C/C=C/C(=O)OCC(=O)Nc1c(Cl)cccc1Cl	i	-42	5	7	-6	-2	-19	2
CC1CCCCC12NC(=O)N(CC(=O)OCc1ccccc1Cl)C2=O (stereo not given)	nt	-3	nt	nt	3	1	-1	nt
Cc1ccccc1NC(=O)COC(=O)Cc1ccsc1	i	16	5	-17	-1	5	nt	2
Cc1cc(C)c(C)c(S(=O)(=O)N2CCC(C(=O)N3CCCCCCC3)CC2)c1C	i	5	-13	-9	-5	1	7	-1
COc1ccc2sc(N(CCCN(C)C)C(=O)c3nc4ccccc4s3)nc2c1	i	-1	-14	4	3	-1	-15	-3
COC(=O)C1=C(C(=O)OC)C(C(=O)OC)N2C=CC=CC2=C1C(=O)OC (stereo not given)	nt	-14	nt	nt	2	4	-2	nt
CC(C)(C)c1ccccc1NC(=O)Cn1cnc2cc([N+](=O)[O-])ccc2c1=O	i	-1	-4	11	3	1	-8	-7
CC(=O)NC1=NN(C(C)=O)C(C)(CS(=O)(=O)c2ccc(Cl)cc2)S1 (stereo not given)	i	nt	-3	-12	-3	-5	-24	-3
CCOc1ccc(Nc2nc(-c3sc(N)nc3C)cs2)cc1	i	-12	-12	6	0	5	-14	1
O=C1CCC(C(=O)N2CCC(O)CC2)CN1CCc1ccc(Cl)cc1 (stereo not given)	nt	nt	-3	-2	-1	3	3	0
O=C(CSc1nc(=O)n(CCCN2CCOCC2)c2c1CCC2)Nc1ccc(F)cc1F	i	-14	-1	nt	-1	0	nt	nt
C=C(C)c1cccc(C(C)(C)NC(=O)N2CCN(c3ccccn3)CC2)c1	i	3	-14	1	2	2	0	-4
CCOc1ccc(N2CC(O)=C(c3ccccc3)C2=N)cc1	i	-9	-1	-10	1	-1	nt	-16
COc1ccc(C(=O)NCC(=O)N2CCCC(C)C2)cc1OC (stereo not given)	i	-22	-13	7	1	8	nt	-12
O=C(CCc1ccccc1)Nc1ccccc1C(=O)NCc1ccco1	i	5	-7	-3	-2	2	-6	8
CCNC(=O)CSc1nc2ccccc2c(=O)n1CCCOC(C)C	i	-49	-1	6	5	2	-18	4
COc1ccc(C2=C(N)c3ccccc3C2=O)cc1	i	-83	14	-10	4	-2	1	-12
C/C(=N/Nc1ccc([N+](=O)[O-])cc1)c1ccc(C)cc1C	i	-119	?	-9	-8	-4	nt	2
Cc1cccc(CNC(=O)c2cc(S(=O)(=O)N3CCOCC3)cn2C)c1	i	2	-4	-5	1	4	5	-14
COc1ccc(CCNC(=S)NCc2cccs2)cc1OC	i	-5	6	-9	-1	-7	-25	11
CNc1ncnc2c1ncn2[C@H]1CN(Cc2ccco2)C[C@@H](CO)O1	nt	6	nt	nt	1	5	-11	nt
C/C(=N/NC(=O)CN1CCN(S(=O)(=O)c2ccc(C)cc2)CC1)c1ccco1	i	-5	-3	-11	-2	0	11	-8
Cc1ccc(S(=O)(=O)N2CCN(C(=O)Cc3ccc4c(c3)OCCO4)CC2)cc1C	i	11	-8	-3	5	3	nt	-1

# Next entries follow:
molecule	Rce1 inh	Env fusion inh	CSC inhib	PABP polyA inh	MT1-MMP act inh	MT1-MMP act inh RFP	UUG fidelity	eIF4H inh
Cc1cccc2sc(NC(=O)CN3C(=O)C4CC=CCC4C3=O)nc12 (stereo not given)	i	15	-15	-6	5	4	nt	-6
Cc1cc(F)ccc1S(=O)(=O)Nc1ccccc1C(=O)Nc1ccc2[nH]c(=O)[nH]c2c1	i	nt	-12	-12	5	6	nt	-5
O=c1cc2c(n[nH]1)CCCC2	i	nt	10	13	0	4	-10	-5
CC1=C(C(=O)OCc2ccc3c(c2)OCO3)C(c2cccc([N+](=O)[O-])c2)NC(=O)N1 (stereo not given)	i	27	8	-7	-10	-17	nt	7
CCc1nnc(NS(=O)(=O)c2ccc(NC(=S)NC(=O)c3cccnc3)cc2)s1	i	-2	-15	10	2	1	nt	3
COc1ccc(N(CC(=O)Nc2cc(Cl)ccc2OC)S(=O)(=O)c2c(C)[nH]c(=O)[nH]c2=O)cc1	i	3	4	11	-4	1	6	6
COc1ccc(NC(=O)CSc2nnc(-c3ccco3)n2C)cc1	i	nt	15	-5	0	1	-21	0
CCCOC(=O)CSc1nc(N)c(C#N)c(-c2ccco2)c1C#N	i	-6	-6	nt	-1	0	2	nt
Cc1ccc(S(=O)(=O)Nc2ccc(C(=O)NCc3ccncc3)cc2)cc1	i	-5	-12	-7	0	1	-12	4
O=C(Nc1cccc(S(=O)(=O)c2cccc(NC(=O)c3ccco3)c2)c1)c1ccco1	i	-14	14	8	0	-31	2	-4
OC1(c2ccccc2)Cc2cccc[n+]2C1c1ccccc1 (stereo not given)	i	1	-1	5	0	4	-2	-7
CCCc1ccc(OCCNC(=O)c2ccco2)cc1	i	-14	3	-5	-1	-3	-9	-9
CCCC(=O)Nn1cnc2c(c1=O)C1(CCCC1)Cc1ccccc1-2	i	nt	-10	-2	-1	-2	5	-2
COC(=O)c1ccc(CNC(=O)N2CCN(S(=O)(=O)c3ccc(C)cc3)CC2)cc1	i	-12	10	-1	-3	-5	12	0
Cc1ccc(S(=O)(=O)N2CCOCC2)cc1NC(=O)C1CC(=O)N(c2ccc3c(c2)OCCO3)C1 (stereo not given)	i	6	-16	nt	0	0	0	nt
CCCOc1ccc(N2C(=O)CC(NCC#N)C2=O)cc1 (stereo not given)	i	4	-2	3	-6	-1	-24	-1
CCc1ccc(-n2c(O)c(C=NCCN(CC)CC)c(=O)[nH]c2=O)cc1	nt	-27	nt	18	-73	5	15	36
COc1ccccc1/C=N/NC(=O)c1cc2c(ccc3ccccc32)o1	i	nt	nt	10	-1	-4	-11	-11
Cn1c(CNc2ccc(F)cc2)nc2ccccc21	i	-29	10	20	5	2	-14	11
COC(=O)C1CCN(CC(N)=O)CC1	i	nt	-4	1	-2	3	-7	4
COC(=O)[C@@H]1C[C@@]2(O)[C@H](O)[C@H](O)[C@H](O)C[C@H]2N1Cc1ccc(C(C)(C)C)cc1	i	7	-14	6	5	6	-6	9
NC(=O)c1nsc(C(=O)N(c2ccccc2)C(C(=O)NC2CCCC2)c2ccncc2)c1N (stereo not given)	i	-11	nt	-1	2	-1	-8	1
O=C(Nc1ccccc1Cl)c1ccc(Cl)cc1Cl	i	-6	-16	-7	3	2	3	-22
CSc1nnc(-c2cnccn2)n1Cc1ccccc1	i	-81	-12	2	-3	1	-6	2
COc1ccc2c(c1)C1(Nc3ccccc3-c3nc4ccccc4n31)C(=O)N2C (stereo not given)	i	nt	11	-3	-2	-2	-21	-5
CC(C)CCNC(=O)C1CCN(c2nnc(-n3cccc3)s2)CC1	i	12	-12	-10	2	-1	-20	-8
O=C(CSCc1ccc(Br)cc1)N=Nc1c(O)[nH]c2ccccc12	i	-7	-5	-7	3	1	nt	2
